Source: PubChem BioAssay
Hsc70 ATP site: Hsc70 inhibitors, probe displacement, primary screen, biochemical, fluorescence polarization (AID 568). one-dose displacement, % at 20 µM; IC50 in µM for titrated hits. 83,000 tested, under 10 active. Hsc70 fluorescence polarization, probe displacement; higher % means a stronger effect; strong numbers were not always called active;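 active = displacement above 50% without optical interference and an IC50 on retest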;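 note: ATPase domain with a fluorescein-tagged ATP probe; 0% = vehicle and 100% = excess ADP; read after one hour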
MT1-MMP reporter: inhibitors of MT1-MMP promoter transcription, cell-based, luciferase reporter, luminescence (AID 618); MT1-MMP promoter luciferase reporter cells, luminescence; calls from a first round at 10 µM; hits with a dose series show EC50 in µM; hit rate 0.62% among 87,000;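 active = over half of the reporter light lost at 10 µM or EC50 under 50 µM; inactive = the rest and hits that failed the dose series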;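 note: actives suppress MT1-MMP promoter-driven transcription so potencies describe inhibitors; HT1080 fibrosarcoma cells; overnight exposure; toxic or luciferase-blocking compounds were not removed from the actives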
WNV protease inh: WNV NS2B-NS3 proteinase inhibition | P06935 | WNV NS2B-NS3 protease, fluorogenic substrate Ex360/Em465; stronger effect = lower value | z-score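 (tested at a level between 10 and 100 µM)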 | hit rate 0.18% among 65,000 | AID 577;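 active = z-score at -3 or under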;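 note: score is relative to mean and spread of the compound wells of a plate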
Target sequence (P06935 1371-1501 limits assumed): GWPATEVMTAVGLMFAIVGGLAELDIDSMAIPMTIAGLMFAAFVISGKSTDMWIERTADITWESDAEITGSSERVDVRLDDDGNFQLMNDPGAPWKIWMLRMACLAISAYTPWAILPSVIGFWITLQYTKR
Target sequence (P06935 1502-1679 limits assumed): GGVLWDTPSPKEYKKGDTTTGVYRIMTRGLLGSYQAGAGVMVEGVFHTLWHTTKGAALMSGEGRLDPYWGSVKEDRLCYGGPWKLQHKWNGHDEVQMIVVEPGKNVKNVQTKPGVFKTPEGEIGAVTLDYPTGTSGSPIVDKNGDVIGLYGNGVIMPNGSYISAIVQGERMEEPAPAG
Active calls of the source: *; i = inactive; . = no result given; & = joins results of further samples. Only part of the results is shown; rates above refer to the full screens.

item	Structure	Hsc70 ATP site	MT1-MMP reporter	WNV protease inh
1	Cc1ccnc(NS(=O)(=O)c2ccc(NC(=O)C3CCCCC3C(=O)O)cc2)n1 (stereo not given)	5.1%	i	0.55
2	Cc1occc1C(=O)NC(C)C(C)(C)C (stereo not given)	4.8%	i	-0.26
3	CCSc1nnc(NC(=O)c2ccc(Br)s2)s1	6.4%	i	-0.67
4	CCCCOCCCNC(=O)N[C@@H](CCSC)C(=O)OC	-2.9%	i	-0.13
5	CCCN1Cc2cccc(C(=O)Nc3ccc(OC)c(OC)c3)c2C1=O	-0.3%	i	1.2
6	O=C1C2C3C=CC(C3)C2C(=O)N1c1ccc(-c2nc3ccccc3o2)cc1 (stereo not given)	-2.4%	i	0.34
7	CC(=O)c1ccc(N2CCN(C(=O)c3ccco3)C(C)C2)c(F)c1 (stereo not given)	-1.6%	i	0.57
8	CC(C)(C)c1nc(CN2CCOCC2)ccc1O	-0.7%	i	0.03
9	COC(=O)Cc1nnc(NC(=O)c2ccccc2)s1	-7.5%	i	1.5
10	CCc1ccc2oc(=O)cc(CN3CCC(C)CC3)c2c1	-2.6%	i	0.44
11	CCOC(=O)c1ccc(N=Cc2nc(-c3ccccc3)oc2OC(C)=O)cc1	-0.1%	i	0.49
12	COc1ccc(OC)c(N(CC(=O)Nc2ccc3c(c2)OCO3)S(=O)(=O)c2ccccc2)c1	-3.1%	i	-0.55
13	CC(C)C(c1nnnn1C1CCCCC1)N1CCOCC1 (stereo not given)	-0.2%	i	-1
14	Cc1ccc2c(c1)c1ncnc(N3CCN(c4ccccc4)CC3)c1n2C	-1.9%	i	1.7
15	CCCc1[nH]nc2c1C(C1CCCCC1)C(C#N)=C(N)O2 (stereo not given)	-2.8%	i	0.06
16	Cn1c2c(c(=O)n(C)c1=O)C1c3ccccc3OCC1C(C)(C)O2 (stereo not given)	0.7%	i	-0.7
17	CC(C)C(c1nnnn1Cc1ccccc1)N1CCN(Cc2ccc3c(c2)OCO3)CC1 (stereo not given)	-8.8%	i	3.1
18	CCc1c(C)nc(N)n2c(SCC(=O)N3CCCc4ccccc43)nnc12	2.4%	i	0.56
19	CCOC(=O)C1CCN(Cc2coc3ccc(Cl)cc3c2=O)CC1	1.7%	i	-0.86
20	Cc1ccc(NC(=O)COC(=O)c2ccc3c(c2)NC(=O)C2CCCN32)cc1 (stereo not given)	-4.6%	i	-0.93
21	COc1ccc(N2CCN(C(=O)CSc3ncnc4c3cnn4-c3ccc(OC)cc3)CC2)cc1	-3.8%	i	-0.38
22	Nc1nonc1-c1nc2ccccc2n1Cc1ccc(Cl)cc1	-8.2%	i	-0.23
23	O=c1c2ccccc2nc(CSc2nnnn2-c2ccccc2)n1-c1cccc(C(F)(F)F)c1	2.0%	i	.
24	Cc1nn(-c2nc3ccccc3[nH]2)c(N)c1-c1ccccc1	-3.0%	i	0.26
25	CN(C)C(=O)CN1C(=O)C2CCCCN2C(=O)c2ccccc21 (stereo not given)	2.8%	i	0.16
26	CC1C(C#N)=C(N)OC2=C1C(=O)CC(C)(C)C2 (stereo not given)	1.6%	i	-0.29
27	CCOC(=O)c1ccc(N2C(=O)c3n[nH]c(C)c3C2c2ccccc2)cc1 (stereo not given)	-0.8%	i	1.6
28	COC(=O)c1ccccc1NC(=O)N1c2ccccc2CC1C (stereo not given)	1.8%	i	0.67
29	CCN(CC)CCCNC(=O)c1cc2c(=O)n(C)c3ccccc3c2n1C	-2.9%	i	-0.52
30	COc1cccc(C(=O)N(C)c2nnc(-c3ccncc3)s2)c1	3.6%	i	.
31	Cn1nc(-c2ccc(Cl)cc2)nc2c(=O)n(C)c(=O)nc1-2	22%	i	.
32	O=S(=O)(NC1=NCCCCC1)c1cccs1	4.4%	i	-1.3
33	CCOCC(=O)Nc1nc2ccccc2s1	-1.6%	i	.
34	CCOC(=O)c1c(C)[nH]c(C)c1C(=O)CN1C(=O)NC2(CCC(C)CC2)C1=O (stereo not given)	1.7%	i	.
35	N#CC1=C(N)Oc2cc(O)ccc2C1C1CCCCC1 (stereo not given)	4.7%	i	1.5
36	C=C1C(C(=O)N2CCOCC2)C1C(=O)N1CCOCC1 (stereo not given)	-0.6%	i	-0.08
37	CN1CCN(C(=O)c2cc3c(n(-c4ccccc4)c2=O)CC(C)(C)CC3=O)CC1	4.9%	i	1.9
38	Cc1cc(NS(=O)(=O)c2ccc(NC(=O)Nc3cccc(Cl)c3)cc2)no1	3.1%	i	0.15
39	O=C(NCc1cccnc1)C1CCCN(S(=O)(=O)c2cccc3nsnc23)C1 (stereo not given)	-1.4%	i	.
40	Cc1ccnc(SCC(=O)N2CCN(c3ccccc3)CC2)n1	1.1%	i	.

Ordered by SMILES length (high to low): part of the list above
item	Structure	Hsc70 ATP site	MT1-MMP reporter	WNV protease inh
23	O=c1c2ccccc2nc(CSc2nnnn2-c2ccccc2)n1-c1cccc(C(F)(F)F)c1	2.0%	i	.
37	CN1CCN(C(=O)c2cc3c(n(-c4ccccc4)c2=O)CC(C)(C)CC3=O)CC1	4.9%	i	1.9
20	Cc1ccc(NC(=O)COC(=O)c2ccc3c(c2)NC(=O)C2CCCN32)cc1 (stereo not given)	-4.6%	i	-0.93
14	Cc1ccc2c(c1)c1ncnc(N3CCN(c4ccccc4)CC3)c1n2C	-1.9%	i	1.7
30	COc1cccc(C(=O)N(C)c2nnc(-c3ccncc3)s2)c1	3.6%	i	.
2	Cc1occc1C(=O)NC(C)C(C)(C)C (stereo not given)	4.8%	i	-0.26
33	CCOCC(=O)Nc1nc2ccccc2s1	-1.6%	i	.

Continued.
item	Structure	Hsc70 ATP site	MT1-MMP reporter	WNV protease inh
41	CCc1ccc(NC(=O)CNC(=O)c2cn(-c3ccccc3OC)c(=O)c3ccccc23)cc1	2.0%	i	.
42	Cc1ccc(-c2nnc(COc3cccc(-n4cnnn4)c3)o2)cc1	-7.6%	i	0.91
43	CCOC(=O)C1=C(C)N=C2SC(CC)C(=O)N2C1c1cccc(F)c1 (stereo not given)	0.5%	i	-0.0012
44	CCc1c(C)nc2ncnn2c1Nc1ccc(C#N)c(Cl)c1	-3.1%	i	-0.87
45	COc1cccc(C(=O)OC2CCCN(C)C2)c1 (stereo not given)	5.7%	i	1.1
46	O=C(NCCc1ccccc1)c1nc2ncccn2n1	1.3%	i	.
47	OC(COCC1COc2ccccc2O1)CN1CCc2ccccc2C1 (stereo not given)	0.6%	i	-0.69
48	CCOC(=O)Nc1ccc2c(c1)ncn2C1CCCCC1	-4.1%	i	1.6
49	COC(=O)c1cccc(NC(=O)CN2CCOCC2)c1	-6.1%	i	0.61
50	Cc1ccc(NC(=O)C2CCCN(S(=O)(=O)c3c(C)noc3/C=C/N(C)C)C2)cc1F (stereo not given)	-6.4%	i	-0.86
51	Cc1ccc(S(=O)(=O)NCc2nnc(SCC(=O)Nc3cccc(C)c3C)n2C)cc1	-0.3%	i	.
52	COc1ccccc1C1CC(c2ccc(C)cc2)Nc2ncnn21 (stereo not given)	11%	i	-1
53	O=C(NC(=O)c1ccc(Cl)c(Cl)c1)OC1CCS(=O)(=O)C1 (stereo not given)	1.2%	i	-0.28
54	COc1cccc(Cn2c(NCc3cccnc3)nc3c2c(=O)n(C)c(=O)n3C)c1	2.7%	0.25µM*	.
55	O=C(Cn1c(C(=O)N2CCN(C3CCCCC3)CC2)cc2sccc21)c1ccccc1	-4.4%	i	0.92
56	COc1ccc(C2C(=O)N(CCc3ccccc3)CC(=O)N2C2CCCC2)cc1 (stereo not given)	0.5%	i	-0.38
57	CCCC(C(=O)NCC1CCCO1)N(Cc1ccco1)C(=O)CNS(=O)(=O)c1ccc(F)cc1 (stereo not given)	-2.7%	i	-0.95
58	O=C(Nc1ccon1)c1cnc2sccn2c1=O	-5.6%	i	0.9
59	Cc1noc(C)c1S(=O)(=O)N1CCC(Cc2ccccc2)CC1	2.2%	i	-0.8
60	O=C(CC(NCCc1ccccc1)C(=O)O)Nc1ccc(O)cc1 (stereo not given)	-1.3%	i	.
61	CCOC(=O)c1c(CN2CCOCC2)n(C)c2cc(Br)c(O)c(CN(C)C)c12	-3.7%&-2.4%	i	0.99&2.2
62	COc1cccc(N(CC(=O)NCCSc2ccccc2)S(C)(=O)=O)c1	-0.8%	i	1.1
63	CC1SCCN1S(=O)(=O)c1ccc2ccccc2c1 (stereo not given)	-2.2%	i	.
64	O=C(CS(=O)(=O)c1cn(Cc2ccc(F)cc2)c2ccccc12)N1CCCCC1	-0.1%	i	0.55
65	Cn1c(Cc2csc(N)n2)nnc1SCC(=O)NC1CCCCC1	3.0%	i	-0.01
66	Cc1noc(C)c1C(=O)Nc1nnc(-c2ccccc2)s1	-0.9%	i	-0.52
67	O=C(c1ccc(S(=O)(=O)N2CCOCC2)cc1)N1CCN(c2ccccc2F)CC1	-2.8%	i	-0.57
68	O=C(NCC(=O)N(c1ccccc1F)C(C(=O)NCC1CCCO1)c1ccccc1)c1ccco1 (stereo not given)	-0.4%	i	-0.54
69	Cc1ccc(NS(=O)(=O)c2ccc(CCC(=O)NCCO)cc2)cc1	0.9%	i	.
70	COc1ccc(/C=C\C(=O)CC(O)(c2ccccc2)C(F)(F)F)cc1 (stereo not given)	1.6%	i	.
71	CC1CN(c2nc3c(c(=O)[nH]c(=O)n3C)n2Cc2ccccc2F)CC(C)O1 (stereo not given)	0.3%	i	-1.3
72	CC(=O)c1cc(OC(=O)N2CCOCC2)ccc1OC(=O)N1CCOCC1	-11%	i	-0.47
73	COCCCNC(=O)CSc1ccc(Cl)cc1	1.4%	i	-0.9
74	CC(=O)Nc1ccc(S(=O)(=O)N2CCN(CCC#N)CC2)cc1	0.2%	i	0.39
75	Clc1ccc(C2=Nn3c(nnc3-c3n[nH]c4c3CCC4)SC2)cc1Cl	0.4%	i	-0.21
76	CC(C)c1cc(Nc2cccc(O)c2)cc(C(C)C)c1O	-0.2%	i	1
77	COCCOC(=O)c1[nH]c2c(c1C)C(=O)CC(c1ccc(F)cc1)C2 (stereo not given)	3.3%	i	0.15
78	CNC(=O)Nc1ccccc1NC(=O)NC	2.9%	i	-0.39
79	COCCOc1ccc(C(F)(F)F)cc1NC(=O)COC(=O)c1c(C)noc1C	-0.6%	i	1.2
80	COc1ccccc1NC(=O)C1=C(C)Nc2nc(-c3cccs3)nn2C1c1cccnc1 (stereo not given)	4.7%	i	-0.48
81	COCCn1c(SCC(=O)Nc2sc(C)c(C)c2C#N)nnc1-c1ccc(OC)cc1	-1.1%	i	-0.11
82	Cc1cccc(N2CCN(Cc3oc(CO)cc(=O)c3O)CC2)c1C	6.2%	i	.
83	COc1ccc(S(=O)(=O)C(C#N)c2nc3ccccc3nc2N2CCC(C)CC2)cc1 (stereo not given)	-25%	i	-0.26
84	COc1ccc(CN2CCCCCC2)c(C)c1C	-12%	i	-2
85	c1ccc(CSc2nnc(-c3ccco3)c(-c3ccco3)n2)cc1	-5.3%	i	-1.7
86	CCS(=O)(=O)NCC(c1cccnc1)N1CCN(c2ccccc2OC)CC1 (stereo not given)	-3.7%	i	-2.1
87	COC(=O)CSc1nnc(-c2cccnc2)o1	-1.5%	i	.
88	O=C(CSc1nnc(-c2cc3ccccc3cc2O)n1Cc1ccco1)N1CCc2ccccc2C1	4.2%	i	.
89	O=c1cc(C(F)(F)F)oc2c1ccc1ccccc12	-2.8%	i	.
90	COC(=O)c1sc2cnccc2c1N	-1.1%	i	1.6
91	O=C1c2ccccc2C(=O)N1CCSc1ncn[nH]1	1.5%	i	.
92	Cc1c(C(=O)NCc2cccnc2)oc2ccc(S(=O)(=O)N3CCCC(C)C3)cc12 (stereo not given)	-1.0%	i	0.38
93	COC(=O)c1ccccc1NC(=O)c1cc(-c2ccc(OC)c(OC)c2)on1	-1.1%	i	-0.0055
94	CCCC(c1nnnn1CS(=O)(=O)c1ccc(C)cc1)N1CCN(c2ccccc2)CC1 (stereo not given)	-3.7%	i	1.2
95	CC(NC(=O)Cn1cnc2c1c(=O)n(C)c(=O)n2C)c1ccccc1 (stereo not given)	-6.4%	i	-0.24
96	CCOC(=O)c1cc(CC)sc1NC(=O)C1CC1	11%	i	0.68
97	CCOc1ccc(-c2nnn(CCC(=O)O)n2)cc1OC	0.4%	i	0.33
98	C=CCc1cccc2cc(C(=O)N(CC)CC)c(=O)oc12	6.8%	i	-0.25
99	Cc1noc(C)c1CSc1nnc2scc(-c3ccc(Cl)cc3)n12	5.6%	i	-0.33
100	Cc1nc2oc3c(NCC4CCCO4)ncnc3c2c2c1COC(C)(C)C2 (stereo not given)	2.8%	i	-0.02

Next entries follow.
item	Structure	Hsc70 ATP site	MT1-MMP reporter	WNV protease inh
101	Cn1cc(CNC(=O)c2sc3cccc(Cl)c3c2Cl)cn1	-0.2%	i	.
102	O=C(CCn1c(=O)oc2ccccc21)N1CCN(c2ccccc2F)CC1	6.8%	i	0.27
103	CCCCNc1cc(C(=O)O)cc(S(N)(=O)=O)c1Oc1ccccc1	2.0%	i	0.32
104	Cc1cc(-c2ccco2)n(CC(=O)NCCN(C)C)n1	2.9%	i	0.38
105	CC1CCCCN1CCCNC(=O)c1ccc2c(=O)n(CCc3ccccc3)c(=O)[nH]c2c1 (stereo not given)	3.5%	i	.
106	O=C(CCC1CCCCC1)Nc1c[nH]c(=O)[nH]c1=O	-4.0%	i	0.6
